# Screening data deposited in PubChem BioAssay by The Scripps Research Institute Molecular Screening Center.
# OX1R antag – antagonists of human orexin 1 receptor (OX1R) | O43613 | OX1R-expressing cells, FRET antagonist read-out | inhibition, % at 6.6 µM | 330,000 compounds, 1.8% hits | AID 485270; in the data active means inhibition mostly above about 38%, no sharp cut-off; inactive means mostly below about 40%;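 further: 0% = agonist challenge alone and 100% = reference antagonist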
# Target sequence (O43613 whole entry, looked up): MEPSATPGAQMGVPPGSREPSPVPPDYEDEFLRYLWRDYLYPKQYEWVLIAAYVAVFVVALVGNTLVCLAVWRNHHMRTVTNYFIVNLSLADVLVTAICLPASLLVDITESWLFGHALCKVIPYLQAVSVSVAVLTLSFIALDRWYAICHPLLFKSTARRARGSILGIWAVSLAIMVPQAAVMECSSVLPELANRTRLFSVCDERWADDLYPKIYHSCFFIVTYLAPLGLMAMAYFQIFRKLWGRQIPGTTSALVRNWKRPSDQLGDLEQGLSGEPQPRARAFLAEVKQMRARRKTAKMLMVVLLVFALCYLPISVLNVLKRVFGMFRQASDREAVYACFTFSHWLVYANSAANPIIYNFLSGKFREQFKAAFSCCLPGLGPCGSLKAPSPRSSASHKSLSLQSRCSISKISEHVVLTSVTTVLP
# Starred values were filed as active, the others as inactive. Not all compounds are listed; most or all hits stand in other tables.
OX1R antag | smiles
15 | Cc1cc(NC(=O)C2=C(O)c3ccccc3S(=O)(=O)N2C)no1
20 | O=C(NC1CCCC1)c1ccc(CSCc2ccccc2F)o1
26 | Cc1ccccc1OCC(=O)Nc1cccc(NC(=O)c2ccco2)c1
8 | COc1ccccc1CC(=O)N1CCCC(CCC(=O)NCc2ccccc2F)C1 (stereo not drawn)
19 | COc1cc(SC)ccc1C(=O)Nc1cc(C)ccn1
1 | COc1cccc(OCc2cc(/C=N/n3cncn3)ccc2OC)c1
16 | CCC(C)Oc1ccccc1C1CC(=O)NC2=C1C(=O)CCC2 (stereo not drawn)
12 | Clc1ccccc1-c1nnc(CNC2CC2)o1
51 | Oc1ccc2ccc3cccc[n+]3c2c1
10 | O=C(Cn1c(=O)c2c(ncn2Cc2ccccc2)n(Cc2ccccc2)c1=O)N1CCCC1
29 | O=C(c1ccc(Cl)cc1[N+](=O)[O-])N1CCN(c2ccccn2)CC1
14 | CCCCNC(=O)c1c(CSc2ccc(Cl)cc2)noc1C(=O)NCc1ccccc1
-5 | Cc1ccc2cc(/C=N/NC(=O)c3ccccc3[N+](=O)[O-])c(Cl)nc2c1
4 | O=c1[nH]c(=O)n(Cc2ccccc2)c2nc(-c3ccco3)cc(C(F)(F)F)c12
18 | Clc1ccc(C2[C@H]3CN(CC4CCCCC4)[C@H](c4ccccc4)C34CC2(c2ccccc2)C4)cn1 (stereo partly drawn)
20 | COc1ccc(NC(=O)N(CCO)Cc2cc3c(C)cc(C)cc3[nH]c2=O)cc1
4 | CCC1(c2ccc(OC)cc2)NC(=O)N(CC(=O)NC2CCCCC2C)C1=O (stereo not drawn)
18 | COc1cc([N+](=O)[O-])ccc1NC(=O)NCc1cccnc1
8 | COC(=O)c1ccc(CN2CCC(CO)(Cc3ccc(OC)cc3)CC2)cc1
13 | O=[N+]([O-])c1cccc(C(=S)N2CCN(c3ccccc3F)CC2)c1

# Among those listed so far, two have an aryl thioether with sulfur outside any ring.
OX1R antag | smiles
19 | COc1cc(SC)ccc1C(=O)Nc1cc(C)ccn1
14 | CCCCNC(=O)c1c(CSc2ccc(Cl)cc2)noc1C(=O)NCc1ccccc1

# More compounds.
OX1R antag | smiles
22 | CC(=O)c1ccc(NC(=O)c2noc(C(C)C)c2[N+](=O)[O-])cc1
14 | O=C(CSc1ccc(-c2ccccn2)nn1)NC1CCCC1
8 | CC(C)c1ccc(NC(=S)NN2CCOCC2)cc1
20 | COc1ccc(OCC(=O)Nc2cccc(C(C)=O)c2)cc1
8 | COC(=O)c1ccc(CSc2nnc(CNC(=O)COc3ccc(Cl)cc3)o2)o1
20 | COc1ccc(N2CCN(C(=S)NCc3ccc(C)cc3)CC2)cc1
10 | CCOC(=O)c1nc[nH]c1C
10 | O=C(Cn1nnc(-c2ccccc2)n1)NCC(=O)Nc1ccc(F)c(F)c1F
2 | COCCn1c(=S)[nH]c2cc(C(=O)NCCc3ccc(OC)c(OC)c3)ccc2c1=O
9 | COc1ccc(COC(=O)c2ccc(Br)c(S(=O)(=O)N3CCOCC3)c2)cc1F
24 | COCc1cc(Sc2ccc(Cl)cc2Cl)nc(-c2ccccc2)n1
19 | CN1C(=O)NC(c2ccccc2)(C(F)(F)F)S/C1=C(/C#N)c1nnc(N2CCOCC2)n1-c1ccccc1 (stereo not drawn)
-1 | O=C(NC1CC1)C1CC(=O)N(c2ccccc2)C1 (stereo not drawn)
25 | C#CCOCCOCCOCCNc1nc(N2CCN(C(=O)C(Cc3cc4ccccc4[nH]3)n3cc(C(N)C(C)CC)nn3)CC2)nc(N2CCN(C(=O)C(Cc3cc4ccccc4[nH]3)n3cc(C(N)C(C)CC)nn3)CC2)n1 (stereo not drawn)
18 | O=C(O)CSC(C(=O)Nc1ccc(Br)cc1)c1ccccc1 (stereo not drawn)
26 | CCC1=[N+](C)CCn2c(C)ccc21
8 | Cc1ccc(C(=O)NNC(=O)CSc2n[nH]c(-c3cccnc3)n2)cc1
0 | Cc1nn(C)cc1CNC(=O)CCC(=O)O
7 | COc1cc(/C=C(/NC(=O)c2ccc(Cl)cc2Cl)C(=O)O)cc(OC)c1OC
-3 | CC(C)(C)NCCCCOc1ccc(F)cc1
12 | COCCNCCCCOc1ccc(C)cc1[N+](=O)[O-]
11 | O=C(O)CN(Cc1ccccc1)S(=O)(=O)c1ccc(F)cc1
19 | COc1ccc(-c2noc(CSc3nc(N)c(-c4ccccc4)c(=O)[nH]3)n2)cc1OC
14 | CCC(NC(=O)COc1ccc([N+](=O)[O-])cc1)c1ccccc1 (stereo not drawn)
-3 | CCOc1ccc(OCC(=O)OC(C)C(=O)NC2CCCC2)cc1 (stereo not drawn)
6 | COc1ccc(C(=O)Cn2nnc(-c3ccccc3NC(=O)C(F)(F)F)n2)cc1
1 | CNC(=O)CC(CC(=O)c1ccccc1)c1ccccc1 (stereo not drawn)
-9 | CCc1ccccc1N(C)S(=O)(=O)c1ccc2[nH]cc(C(=O)O)c(=O)c2c1
2 | O=C(COC(=O)c1ccc(Cl)c(S(=O)(=O)N2CCOCC2)c1)Nc1ccc2[nH]c(=O)[nH]c2c1
-4 | O=C(NC1CC1)c1ccc(CS(=O)c2ccc(Br)cc2)o1 (stereo not drawn)
19 | Cc1ccc(C)c(CSc2nnc(-c3cccnc3)o2)c1
3 | NC(=O)COc1ccccc1C(=O)NC12CC3CC(CC(C3)C1)C2
11 | O=C1c2ccccc2C(Nc2cccnc2)N1Cc1ccccc1Cl (stereo not drawn)
10 | Cc1c(C)c2ccc(OCC(=O)NC(Cc3ccc(Cl)cc3)C(=O)O)cc2oc1=O (stereo not drawn)
26 | NS(=O)(=O)c1ccc(NC(=O)C2Cc3ccccc3CN2C(=O)c2ccco2)cc1 (stereo not drawn)
22 | O=C1/C(=C\c2ccccc2Cl)SC(=S)N1CCC(=O)N1CCCc2ccccc21
10 | CCNc1nc(NCC)n2c(SCC(=O)Nc3cc(Cl)ccc3OC)nnc2n1
2 | Cc1ccc(N2CC(C(=O)Nc3cccc(C(=O)NC4CC4)c3)CC2=O)cc1 (stereo not drawn)
-2 | CCCc1nnc(NC(=O)Nc2ccccc2OC)s1
18 | CC(NC(=O)Cn1cccc1C(=O)c1ccccc1)c1ccccc1 (stereo not drawn)
12 | COc1ccc(OC)c(Cc2nnc(CCC(=O)N3CCC(N4CCCCC4)CC3)o2)c1
8 | O=C1/C(=C/c2ccc3c(c2)OCO3)CCC/C1=C\c1ccc2c(c1)OCO2
16 | O=C(N/N=C/c1ccc2c(c1)OCO2)c1cccc(NC(=O)c2ccccc2Cl)c1
10 | Cc1nc2ccccc2n1Cc1ccccc1
8 | COc1cccc(N2C(=O)CC(N3CCC(C(N)=O)(N4CCCCC4)CC3)C2=O)c1 (stereo not drawn)
16 | NC(=O)c1ccccc1Br
12 | O=C(COC(=O)/C=C/c1ccccc1)NCc1ccc(Cl)cc1
6 | CCOCCn1c(CN2CCCC(C)C2)nc2c1c(=O)n(C)c(=O)n2C (stereo not drawn)
26 | C/C(N)=C(/C#N)C(=O)CSc1nc2ccccc2c(=O)n1Cc1ccc(F)cc1
31 | COc1ccccc1/C=C/C=N/N1CCN(Cc2ccccc2)CC1
6 | CCO/C(C)=C1\N=C(c2ccc(Cl)cc2)OC1=O
-2 | CCOc1ccc(CCNC(=O)c2nnn(CC(=O)Nc3c(C)cc(C)cc3C)c2N)cc1OCC
24 | COc1ccc(S(=O)(=O)NC2CCCCC2)cc1C
1 | CCCC1CCC(c2ccc(/C(N)=N/O)cc2)CC1 (stereo not drawn)
21 | Cc1ccccc1C(=O)Nc1c2c(nc3ccccc13)CCCC2
4 | CC(C)n1c(SC2C(=O)CC(C)(C)CC2=O)nc2c1c(=O)n(C)c(=O)n2C
8 | O=C(Nc1cc2c(cc1Cl)OCCCO2)c1ccco1
4 | CCOc1ccc(/C=N/n2c(C)nc3ccccc3c2=O)cc1
11 | O=S(=O)(c1ccc(F)cc1)N1CCN(C(=S)NCc2ccccc2)CC1
11 | CC1=C(c2ccc(C)cc2)S(=O)(=O)N(CC(=O)O)C1=O

# Overlap with the part before: 5 entries, followed by the next part.
OX1R antag | smiles
4 | CC(C)n1c(SC2C(=O)CC(C)(C)CC2=O)nc2c1c(=O)n(C)c(=O)n2C
8 | O=C(Nc1cc2c(cc1Cl)OCCCO2)c1ccco1
4 | CCOc1ccc(/C=N/n2c(C)nc3ccccc3c2=O)cc1
11 | O=S(=O)(c1ccc(F)cc1)N1CCN(C(=S)NCc2ccccc2)CC1
11 | CC1=C(c2ccc(C)cc2)S(=O)(=O)N(CC(=O)O)C1=O
7 | Cn1nnc2cc(C(=O)N3CCC(c4ccccc4)C3)ccc21 (stereo not drawn)
8 | CCc1ccc(S(=O)(=O)Nc2nnc(N)s2)cc1
4 | CN(Cc1nc(-c2cccs2)no1)CC(O)c1ccccc1 (stereo not drawn)
17 | CC1=CCC(COC(=O)Nc2ccccc2)CC1 (stereo not drawn)
15 | Cc1csc(SCCn2c(N3CCOCC3)nc3c2c(=O)[nH]c(=O)n3C)n1
20 | Cc1c(NC(=O)C(C)Sc2nnc(-c3ccccc3)o2)c(=O)n(-c2ccccc2)n1C (stereo not drawn)
5 | COc1ccc(-c2sc3cc4c(cc3c2-c2ccc(OCCN3CCOCC3)cc2)OCO4)cc1
13 | CCOc1ccc(CN(C)CC(=O)c2c(N)n(Cc3ccccc3)c(=O)n(CC)c2=O)cc1OC
1 | O=C(N/N=C/c1ccc(-c2cccc(C(F)(F)F)c2)o1)c1ccccc1O
-1 | O=C(O)COCCN1CCN(C(c2ccccc2)c2ccc(Cl)cc2)CC1 (stereo not drawn)
-1 | CC(C)NCC(O)COCc1ccc(Cl)cc1 (stereo not drawn)
27 | Cc1ccc(OCC(=O)N2CCc3ccccc32)c([N+](=O)[O-])n1
14 | O=C(Cc1cccs1)Nc1ccc(F)c(F)c1
19 | COc1ccc(OCC(O)CNC(=O)c2ccccc2)cc1 (stereo not drawn)
4 | CC(=O)Nc1ccc(S(=O)(=O)N2CCN(C)CC2)cc1
40 | Cc1ccc(Cl)cc1NC(=O)CCS(=O)(=O)c1cccc2nonc12
28 | CC(C)N1C(=O)c2ccc(C(=O)O)cc2C1=O
9 | Cc1cccc(C)c1NC(=O)CNC(=O)c1ccc2c(c1)OCCO2
4 | CC(OC(=O)/C=C/c1cccc(C(F)(F)F)c1)C(=O)NC1CCCCC1C (stereo not drawn)
14 | CC(NC(=O)c1ccc2c(c1)OCCO2)c1ccc(S(N)(=O)=O)cc1 (stereo not drawn)

# 3 compounds drawn at random from the list so far:
OX1R antag | smiles
1 | CCCC1CCC(c2ccc(/C(N)=N/O)cc2)CC1 (stereo not drawn)
-2 | CCCc1nnc(NC(=O)Nc2ccccc2OC)s1
8 | COc1cccc(N2C(=O)CC(N3CCC(C(N)=O)(N4CCCCC4)CC3)C2=O)c1 (stereo not drawn)

# Next compounds follow.
OX1R antag | smiles
6 | CCOC(=O)C1=C(N)n2c(s/c(=C/c3ccccc3)c2=O)=C(C(=O)OCC)C1c1ccccc1 (stereo not drawn)
3 | CC1CCCC(C(=O)O)N1C(=O)CCSC(=O)c1ccccc1 (stereo not drawn)
15 | NNC(=O)c1oc2nc(-c3ccccc3)cc(-c3ccco3)c2c1N
15 | COc1ccc(C(=O)NC(C)c2nnc(SCC(=O)NC3CCCC3)n2C)cc1 (stereo not drawn)
21 | CCCOc1ccc(/C=N/Nc2ccccn2)cc1OC
13 | O=c1cc(/N=C/c2coc3cc(Br)ccc3c2=O)[nH]c(=S)[nH]1
15 | COc1cc(-c2nnc(SCC(=O)N3c4ccccc4Sc4ccccc43)o2)cc(OC)c1OC
28 | Cc1ccc(-c2nnc(N3CCCCC3)c3ccccc23)cc1S(=O)(=O)NCC1CCCO1 (stereo not drawn)
9 | CC(C)OC(=O)CN1C(=O)c2ccccc2C1=O
25 | CN1C(=O)c2ccc(S(=O)(=O)c3ccc(C(=O)O)cc3)cc2C1=O
1 | CCCCC(CC)COC(=O)C(C#N)=C(c1ccccc1)c1ccccc1 (stereo not drawn)
11 | Cc1ccc(S(=O)(=O)ON2C(=O)c3ccccc3C2=O)c(C)c1
10 | Cc1ccc(C(=O)C2CCN(CC(=O)NCc3ccc(F)cc3)CC2)cc1
31 | CCCNc1c(NS(=O)(=O)c2ccc(C3CCCCC3)cc2)c(=O)oc2ccccc12
21 | COc1cccc(NC(=O)Cn2cnc3c(oc4nc5c(cc43)CCCC5)c2=O)c1
56 | O=C(O)C1CN(c2ncccc2[N+](=O)[O-])C1
19 | COCC(C)NC(=O)c1cccc(Cl)c1 (stereo not drawn)
3 | Cc1cc(-c2csc(N)n2)c(C)n1Cc1ccco1
1 | CCCN(CCC)CCNC(=O)C1(O)c2ccccc2NC(=O)N1c1cccc(OC)c1 (stereo not drawn)
-2 | Fc1cccc(/C=N/n2c(C3CCCCC3)n[nH]c2=S)c1
16 | CN(C(=S)NC(=O)c1ccc(F)cc1)C1CCCCC1
23 | CCn1c(=O)c(C(=O)CN2CCN(S(=O)(=O)c3cc(C)ccc3C)CC2)c(N)n(Cc2ccccc2)c1=O
9 | CCOC(=O)Nc1cc(NC(=O)OCC)c(C)nc1C
-8 | NC(=O)Cn1c(=O)n(Cc2ccccc2)c(=O)c2cccnc21
17 | CCc1nnc(NC(=O)CSc2nnc(-c3cccnc3)n2CC)s1
39 | CC1CCN(C(=O)COc2cccc3c2CCN(Cc2ccccc2)C3=O)CC1
13 | Cc1ccc(CSc2nsc(C)c2C#N)cc1
12 | CCN(CCCNC(=O)C1CCN(S(=O)(=O)c2c(C)[nH]c(=O)[nH]c2=O)CC1)c1cccc(C)c1
23 | CC1CCCC(C)N1CCCNC(=O)c1ccc2nc(N3CCCCC3)sc2c1 (stereo not drawn)
13 | COc1ccc(-c2nc(C#N)c(NCCCn3ccnc3)o2)cc1OC
20 | CCCCOc1cccc(C(=O)N(Cc2ccccc2)C2CCS(=O)(=O)C2)c1 (stereo not drawn)
33 | Cc1nnc(SCC(=O)c2c(N)n(Cc3ccccc3)c(=O)n(C)c2=O)n1C
